Vaccinia Venus: vaccinia inhibition (Venus reporter). Vaccinia virus Venus reporter expression, fluorescence. Potency, µM (series often up to 36.5 µM), inactives show at the top dose activity change, negative = inhibition, actives largely listed as inhibitors. 330,000 tested, 0.46% active. AID 720580; active means well fitted inhibition curve with a large enough effect; inconclusive means small, poorly fitted or top-dose-only effect; inactive means no such curve, though single readings can be large or run the other way; tested in A549 cells; note: nearly all actives have a fitted effect of over 30% in size; inactives centre near -10
Vaccinia mCherry: vaccinia inhibition (mCherry reporter) | Vaccinia virus mCherry reporter infection, fluorescence; about a quarter of the inactives have no number | Potency, µM (titrated, usually from 36.5 µM), for the others: at the top dose activity change, negative = inhibition, usual class: inhibitors | 310,000 tested, 0.63% active | AID 720579; active = well fitted inhibition curve with a large enough effect; inconclusive = small, poorly fitted or top-dose-only effect; inactive = no such curve, though single readings can be large or run the other way; tested in A549 cells; note: nearly all actives have a fitted effect of over 35% in size; inactives centre near -10
Numbers without * were called inactive; i = inactive; ? = inconclusive; / = not tested or not shown; [ ] = remark or other dose. % is set by controls: 0 for no effect and ±100 for the full control effect; potency is the fitted concentration of half-maximal effect.

Compound	Vaccinia Venus	Vaccinia mCherry
CCOc1ccc(C2CC(c3ccc(OC)c(OC)c3)n3nc(N)nc3N2)cc1 (configuration not stated)	0%	0%
COc1ccc(CCNC2=CC(=O)CCC2)cc1OC	-10%	-26%
COc1ccccc1CCC(=O)Nc1ccc2c(c1)c(=O)n(C)n2Cc1ccc(F)cc1	-28%	-2%
OC(c1ccc(Cl)c(Cl)c1)c1ncc(-c2cccc(F)c2)[nH]1 (configuration not stated)	-17%	-25%
Cc1c(Cl)cccc1NC(=S)NCCc1ccc(C(F)(F)F)cc1	-18%	i
Cc1cccc(N2CCN(C(=O)c3ccc4ncsc4c3)CC2)c1C	?	?
COc1cnc(-c2cccc(C(F)(F)F)c2)c(NC(=O)c2cc3ccccc3s2)n1	-21%	-20%
COc1ccc(N=Cc2nc(-c3ccco3)oc2O)cc1	-8%	/
NC(=O)C1CCN(C(=O)/C=C/c2ccco2)CC1	-10%	i
O=C([O-])c1ccccc1-[n+]1c(-c2ccccc2)cc(-c2ccccc2)cc1-c1ccccc1	-11%	i
O=C(O)Cn1c(=O)c2c3c(sc2n(Cc2ccc(Cl)cc2Cl)c1=O)CCCC3	-5%	i
CCOc1ccccc1NC(=O)CNC(=O)CNC(=O)Cc1ccccc1	-4%	-10%
Cc1cccn2c3c(c(=O)nc12)C(c1cccc(F)c1)CC(=O)N3 (configuration not stated)	-3%	1%
COc1ccc(NC(=O)c2cccc3c(-c4ccc(O)c(OC)c4)coc23)cc1	-30%	-9%
CCC(C)n1c(O)c(/C=N/NC(=O)c2ccncc2)c(=O)[nH]c1=S (configuration not stated)	6%	13%
O=C(O)CN1C(=O)/C(=C\c2cccc(OC(=O)c3ccco3)c2)SC1=S	9%	-14%
CC(/C=N/NC(=O)Cc1cccn1C)=C\c1ccccc1	2%	-18%
O=C1CSC(=S)N1/N=C/c1cccc(C(F)(F)F)c1	5%	i
CCOC(=O)CSc1nc2cc(S(=O)(=O)N3CCOCC3)ccc2n1CC	1%	i
O=C(COc1ccc(S(=O)(=O)NCc2ccccc2)cc1)N1CCOCC1	-5%	-18%
Cc1cc(=O)oc2cc(OCC(=O)N3CCN(Cc4ccccc4)CC3)ccc12	-20%	-23%
O=C(CSc1nc2ccccc2o1)N1CCN(c2ccccc2)CC1	2%	-2%
Cc1ccc(S(=O)(=O)N2CCN(c3nc(-c4cccs4)nc4ncccc34)CC2)cc1	?	-22%
Cc1c(C(=O)N2CCN(S(=O)(=O)c3ccccc3)CC2)oc2ccc(Br)cc12	-22%	-7%
O=c1[nH]c(COc2ccc(Cl)cc2Cl)nc2ccccc12	-4%	-9%
O=C(C[N+]1(CCO)CCOCC1)c1ccc(F)c2ccccc12	-30%	?
Cc1ccccc1/C=C/c1nc2ccccc2c(=O)n1CCc1ccccc1	-7%	i
COCCNC(=O)C1(C(F)(F)F)CC(CCCO)CCCO1 (configuration not stated)	-1%	i
CCOC(=O)C1(CC2CC2)CCN(C(=O)c2cc(C3CC3)nc3ccccc23)CC1	-15%	i
Cc1cccc(C)c1NC(=O)CSc1nnc(Cc2ccccc2)o1	?	-1%
CCOC(=O)C1=NOC(Cn2cc(C#N)c(=O)n(C)c2=O)C1 (configuration not stated)	-10%	i
O=C(c1ccc2c(c1)OCO2)[C@@H]1[C@@H]2C(=O)N(C3CCCCC3)C(=O)[C@@H]2C2c3ccccc3C=CN21 (some centres not stated)	-11%	-6%[1.46 µM]
CCC(CC)c1nnc(NC(=O)CCc2ccc(OC)cc2)s1	-29%	i
COc1ccccc1-c1n[nH]c2c1[C@H](C)CC[C@H]2C(C)C	-28%	?
CN1CCN(S(=O)(=O)c2cccc([N+](=O)[O-])c2)CC1	-11%	-27%
N#Cc1nc(COc2ccc(Cl)cc2)oc1N1CCN(Cc2ccccc2)CC1	-9%	/
COC(=O)CSc1nc(C)c(C(=O)Nc2ccccc2C)c(-c2ccc(Cl)cc2)c1C#N	-12%	-6%
CCOc1ccccc1C(=O)Nc1ccc(-n2nncc2C(C)(C)C)cc1	-14%	-5%
N#Cc1ccccc1NC(=O)C(=O)NCC(c1cccnc1)N1CCN(c2ccccc2)CC1 (configuration not stated)	3%	i
CC(C)c1ccccc1NC(=O)COC(=O)CCN1C(=O)/C(=C\C=C\c2ccccc2)SC1=S	12%	-3%
O=C(C[C@H]1C[C@H](C(=O)N2CCCCC2)[C@@]2(CCc3ccccc3)c3[nH]c4cc(-c5ccco5)ccc4c3CCN2C1=O)NCCN1CCOCC1	10µM*	?
CC(C)(C)S(=O)(=O)c1ccc2nc3c(n2c1)CCCC3	-13%	-20%
COC(=O)c1ccc2nc(-c3cccc(Br)c3)c(Cc3ccsc3)n2c1	-9%	6%
COC(=O)[C@]1(C)N[C@H](CN(C)C(=O)Nc2ccc(OC)cc2)[C@@H]2C(=O)N(Cc3ccccc3)C(=O)[C@@H]21	-8%	i
CC1(Cc2ccc(Cl)c(Cl)c2)C(=O)Nc2ccc(S(=O)(=O)NC3CCCCC3)cc21 (configuration not stated)	-13%	-1%
C(=C\c1ccnc2ccccc12)/c1ccccc1	-19%	-23%
Cc1cc(C(C)(C)C)cc(S(=O)(=O)Nc2ccc(C(=O)O)cc2)c1C	-3%	0%
COc1ccc(OC)c(Nc2nc(-c3sc(NC(=O)CC(C)C)nc3C)cs2)c1	?	?
C[C@@H]1CN([C@@H](C)CO)C(=O)CCCn2cc(nn2)CO[C@H]1CN(C)S(=O)(=O)c1ccccc1	-10%	-17%
CCN(CC)S(=O)(=O)c1ccc(C)c(NC(=O)Cn2cnc3cc([N+](=O)[O-])ccc3c2=O)c1	-10%	i

(cont.)
Compound	Vaccinia Venus	Vaccinia mCherry
O=C(/C=C/c1ccc([N+](=O)[O-])cc1)NCC1CCCO1 (configuration not stated)	8%	-5%
Cc1ccc(NC(=O)Nc2ccc(Cl)c(Cl)c2)nc1	-3%	-10%
CCOC(=O)C1=C(C)NC(=O)NC1/C=C/c1ccccc1 (configuration not stated)	-10%	-21%
COc1cc(/C=C/C(=O)c2c(O)cc(C)oc2=O)cc(OC)c1O	59%[activator]	68%[activator]
O=C(CSc1ncn[nH]1)NCCC(c1ccccc1)c1ccccc1	-11%	/
COc1ccc(-c2nc3c(c(SCc4ccc(Br)cc4)n2)Cc2c(CO)cnc(C)c2O3)cc1	-12%	-4%
O=C1NC[C@H](CCCCN2C[C@H](Cc3ccccc3)N(CCC3CCCCC3)C(=O)C2=O)N(Cc2ccccc2)C1=O	5%	9%
COc1ccc(-n2c(-c3ccc(Cl)cc3)cc3c2CC(C)(C)CC3=O)c(OC)c1	?	-20%
O=C(CN1CCN(c2ccccc2)CC1)Nc1ccc2c(c1)CCC2	7%	-15%
CCN(C(=O)c1cc2c(C)nc3ccccc3c2o1)c1cc(Cl)ccc1OC	-17%	14%
COc1cccc(NC(=O)CSc2nc3ccccc3n2C)c1	-7%	-4%
CC(=O)Nc1cc(-c2ccc(N3CCN(C)CC3)cc2)cn2c(-c3ccccc3)cnc12	-6%	-21%
CN1C(=O)C2C(c3ccc(N(C)C)cc3)NN(Cc3ccccc3)C2C1=O (configuration not stated)	-2%	-10%
CCOC(=O)COc1ccc(S(=O)(=O)Nc2ccc3c(c2)OCCO3)cc1	-20%	-4%
CC(C)c1ccc(CN(Cc2ccco2)c2cnc(S(C)(=O)=O)nc2C(=O)Nc2ccccc2)cc1	-9%	-6%
CC(C)(C)NC(=O)COc1ccc2oc3c(c2c1)CCCC3	-22%	-1%
O=S(=O)(NCc1ccccc1Cl)c1ccc(-c2cnc(C3CC3)o2)cc1	-20%	-25%
Cc1c(NS(=O)(=O)c2ccc(C(=O)NCc3ccccc3)cc2)c(=O)n(-c2ccccc2)n1C	-9%	-12%
COCCC(=O)N1CCCC(C(=O)c2ccc(Oc3ccccc3)cc2)C1 (configuration not stated)	-13%	i
O=C(NCc1ccc(OC(F)(F)F)cc1)C1CC(c2ccc(C(F)(F)F)cc2)=NO1 (configuration not stated)	-26%	-8%
Cc1ccc(S(=O)(=O)N2CCOCC2)cc1NC(=O)COC(=O)/C=C/c1ccc(F)cc1	-12%	i
Cc1ccc(C2=NN(C(=O)c3ccco3)C(O)(C(F)(F)F)C2)cc1 (configuration not stated)	-27%	-8%
Cc1ccsc1CN(C(=O)c1oc2cc(Br)ccc2c1C)C1CCS(=O)(=O)C1 (configuration not stated)	-18%	-24%
Cc1ccc(CNC(=O)CCn2cc(-c3ccc(C)cc3)nc2CCN)cc1	-18%	?
N#Cc1c2n(c3c(=O)n(Cc4ccccc4Cl)cnc13)CCCCC2	-15%	/
NS(=O)(=O)c1ccc(NC(=O)c2ccccc2Cl)cc1	-5%	-3%
CCCN1CCC(NC(=S)Nc2ccc([N+](=O)[O-])cc2)CC1	-13%	-6%
CC(OC(=O)c1ccncc1)C(=O)NC1CCCC1 (configuration not stated)	-17%	-2%
O=S(=O)(Nc1ccc(-n2cccc2)cc1)c1ccc(F)cc1	-14%	-15%
O=C(COc1cc(=O)n2c(n1)SCCC2)c1ccccc1	-12%	-20%
COc1ccc(CCNC(=O)c2ccc(Cn3c(=O)c4ccccc4n(Cc4ccccc4Cl)c3=O)cc2)cc1OC	-13%	-17%
CCC(=O)N(Cc1cc(=O)[nH]c2ccccc12)c1ccc(OC)cc1	-1%	?
COc1ccc(-c2cn3cccnc3n2)cc1Br	-14%	-20%
COc1ccc(CCN=Cc2c(C)[nH]n(-c3ccc([N+](=O)[O-])cc3)c2=O)cc1OC	?	i
Cc1cc(C)n2nc(SC(C)C(=O)N3CCC4(CC3)OCCO4)nc2n1 (configuration not stated)	-4%	-4%
Cc1ccc(CCS(=O)(=O)c2ccc(C(C)(C)C)cc2)cn1	-16%	-15%
CCCOc1ccc(CNC(=O)C2CCN(c3nn4c(=O)cc(C)nc4s3)CC2)cc1	-19%	0%
O=C(NCc1ccccc1)C1c2ccccc2OCC(=O)N1Cc1ccc2c(c1)OCO2 (configuration not stated)	1%	-10%
O=C(Nc1ccccc1)N(Cc1ccc(F)cc1)c1ccccn1	-7%	-14%
CN(CCc1ccccc1)C(c1cc2ccccc2o1)c1nnnn1C(C)(C)C (configuration not stated)	-12%	-13%
COc1ccc(Cc2nc3c([nH]2)c(=O)n(C)c(=O)n3C)cc1OC	-7%	i
Cc1coc2c1c(C)cc1oc(=O)c(CC(=O)NCc3ccc(Cl)cc3)c(C)c12	-8%	-5%
Cc1ccc(C)n1-c1ccc(C(=O)NC2CCN(Cc3ccccc3)CC2)cc1	-25%	-14%
Cc1ccc(OCC(=O)Nc2ccccc2Sc2ccccc2)c([N+](=O)[O-])n1	-19%	-7%
COc1ccc(C(=O)Nc2cccc(OC(=O)c3ccco3)c2)cc1	-12%	-8%
CCC(c1nnnn1Cc1ccco1)N(Cc1cc2cc(OC)ccc2[nH]c1=O)C1CCCCC1 (configuration not stated)	-28%	/
Cc1noc(C)c1S(=O)(=O)Nc1ccc(C(=O)NCCc2ccccc2)cc1	-10%	i
O=[N+]([O-])c1cccc(C=Nc2cccc3ccccc23)c1O	-4%	?
Cc1cn([C@H]2C[C@H](O)[C@@H](CNC(=O)[C@H](N)Cc3cccnc3)O2)c(=O)[nH]c1=O	-5%	i
CCCCc1ccc(NC(=O)c2cc3c(=O)n4ccccc4nc3s2)cc1	1%	4%

Next section:
Compound	Vaccinia Venus	Vaccinia mCherry
Cn1c(=O)c(C(=O)CN2CCCc3ccccc32)c(N)n(Cc2ccccc2)c1=O	3%	-18%
COc1ccc(C2OC(=O)CC2C(=O)NCc2ccccc2Cl)cc1OC (configuration not stated)	-17%	i
CC/C(=N\O)c1ccc(OC)c(OC)c1	-8%	/
CCOc1ccc(NC(=O)CSC2=Nc3ccccc3C3=NC(CCC(=O)NCc4cccs4)C(=O)N23)cc1 (configuration not stated)	-9%	-14%
CCOC(=O)COc1ccc(S(=O)(=O)N2CCc3ccccc3C2)cc1	-7%	-22%
CCN(CC)C(=O)c1ccc(Nc2nnc(-c3ccc(C)c(S(=O)(=O)NC)c3)c3ccccc23)cc1	-6%	-15%
Clc1cccc(CN2CCC3CC2c2cc(N4CCCCC4)ccc23)c1 (configuration not stated)	-7%	-9%
CCC1CCCCN1CCCNS(=O)(=O)c1ccc2c(c1)oc(=O)n2C (configuration not stated)	-1%	-24%
CCCCn1c(=O)c2ccccc2c2ccccc2c1=O	-8%	i
Cc1c2c([n+]3n1CCC3)CC(C)(C)CC2=O	-2%	i

Four entries from above, sorted by length of the SMILES, descending:
Compound	Vaccinia Venus	Vaccinia mCherry
CCOc1ccc(NC(=O)CSC2=Nc3ccccc3C3=NC(CCC(=O)NCc4cccs4)C(=O)N23)cc1 (configuration not stated)	-9%	-14%
Cn1c(=O)c(C(=O)CN2CCCc3ccccc32)c(N)n(Cc2ccccc2)c1=O	3%	-18%
CCC1CCCCN1CCCNS(=O)(=O)c1ccc2c(c1)oc(=O)n2C (configuration not stated)	-1%	-24%
CC/C(=N\O)c1ccc(OC)c(OC)c1	-8%	/

Screening data as filed in PubChem BioAssay.
